Compound activity from PubChem.
RGS16-Gao: RGS16-Galphao interaction regulator (human); binding response (% of control), % at 10 µM; 0.38% of 220,000 active; bead-based flow cytometry RGS16-Galphao binding, fluorescence; actives lie on both sides; O15492+P09471;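 active = below 25% or above 175%, edge rows of some plates excepted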;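 note: Galphao activated by GDP with aluminum fluoride before binding; 100% = wells without compound and 0% = beads without RGS; some results beyond the cut were filed as inactive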
Target sequence (O15492 whole entry, looked up): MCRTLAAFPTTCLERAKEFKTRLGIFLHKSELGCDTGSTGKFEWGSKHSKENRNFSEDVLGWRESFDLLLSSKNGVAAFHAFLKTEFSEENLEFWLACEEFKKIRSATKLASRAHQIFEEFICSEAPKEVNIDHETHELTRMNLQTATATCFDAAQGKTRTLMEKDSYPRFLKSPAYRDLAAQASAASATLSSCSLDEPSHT
Target sequence (P09471 whole entry, looked up): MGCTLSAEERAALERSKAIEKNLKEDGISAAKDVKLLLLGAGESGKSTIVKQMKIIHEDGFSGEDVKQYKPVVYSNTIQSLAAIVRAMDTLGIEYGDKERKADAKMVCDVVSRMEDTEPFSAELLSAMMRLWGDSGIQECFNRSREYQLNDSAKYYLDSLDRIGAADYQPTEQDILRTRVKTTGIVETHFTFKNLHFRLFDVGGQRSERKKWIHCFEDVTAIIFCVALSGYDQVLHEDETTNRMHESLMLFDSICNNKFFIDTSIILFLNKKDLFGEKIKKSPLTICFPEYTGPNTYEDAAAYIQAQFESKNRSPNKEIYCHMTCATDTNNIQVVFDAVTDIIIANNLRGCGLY
PKD1 kinase inh: blocks activity of human protein kinase D1; inhibition, %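 (about 10 µM by stock and volumes)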; 0.056% of 200,000 active; Q15139; AID 797; PKD1 kinase fluorescence polarization assay;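 active = inhibition of 50% or more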;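 note: controls were vehicle for no effect and a reference inhibitor for full effect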
HSV replic up: increases HSV replication in cells | HSV replication augmentation in cells, fold increase | maximum fold increase | 0.005% of 220,000 active;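 active = peak rise of 1.5-fold or more in the series; tested in PC3 cells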;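 note: first round at 10 µM; read as green reporter fluorescence; hits show the peak of a series up to 25 µM; 1 = signal of infected wells without compound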
INS promoter inh: TRM-6 insulin promoter activity inhibition | 0.9% of 130,000 active | AID 1273 | inhibition, % at 2 µM | TRM-6 cells (human fetal islet line), insulin promoter-eGFP reporter, imaging; reporter expression induced with tamoxifen;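 active = inhibition above the mean plus 3 SD, with well images judged a real hit on visual review, cut at about 60% in these data, passing the limit was not always enough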
GALR2 ag: agonists of human galanin receptor 2 (GALR2) | O43603 | GALR2-expressing cells, agonist activation read-out | 0.48% of 140,000 active | activation, %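 (tested at 5 µM)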;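 active = above mean plus 3 SD of all compounds, about 5% in these data, not always enough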;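 note: 0% = vehicle buffer wells and 100% = reference agonist at full effect; tested in CHO reporter cells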
Target sequence (O43603 whole entry, looked up): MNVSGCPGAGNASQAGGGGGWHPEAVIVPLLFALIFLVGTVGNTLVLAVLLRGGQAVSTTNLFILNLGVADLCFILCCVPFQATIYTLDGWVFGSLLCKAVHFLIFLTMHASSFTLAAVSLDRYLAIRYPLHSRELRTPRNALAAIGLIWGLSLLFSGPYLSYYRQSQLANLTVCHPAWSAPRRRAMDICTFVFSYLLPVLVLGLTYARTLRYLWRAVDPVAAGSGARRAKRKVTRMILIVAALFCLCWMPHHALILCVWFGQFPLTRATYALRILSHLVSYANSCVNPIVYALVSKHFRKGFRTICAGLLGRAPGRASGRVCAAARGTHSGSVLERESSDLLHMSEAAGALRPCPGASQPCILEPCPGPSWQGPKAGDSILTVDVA
INS promoter inh cell count: second read-out of INS promoter inh, no call of its own (marks repeat the call); normalized cell count, %; measured here: cell count, toxicity; reference of the scale not given here;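 cells exposed to compound for 48 h; stained nuclei by imaging scaled within each plate; lower means fewer cells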
HSV replic up primary fold: also measured in HSV replic up; calls as there; fold increase; compound at 10 µM; measured here: primary screen fold increase 10 uM; tested in PC3 cells;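 GFP signal in the first replicate; 1 = infected wells without compound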
Active calls of the source: *; i = inactive; x = no result given.

cpd | molecule | RGS16-Gao | PKD1 kinase inh | HSV replic up | HSV replic up primary fold
1 | CCCn1c(N)cc(=O)n(C)c1=O | 103 | -6 | i | 0.93
2 | O=C(/C=C(\c1ccc(Cl)cc1)n1cncn1)c1ccc(Cl)cc1 | 98 | -13 | i | 0.81
3 | COCCN(C(=O)c1ccco1)C(C(=O)NC1CCCC1)c1cccs1 (stereo not drawn) | 91 | 8 | i | 1.1
4 | CC(C)(C)OC(=O)N1CCN(c2ccc(NC(=O)Cn3nnc(-c4ccccc4)n3)cc2)CC1 | 100 | -3 | i | 0.83
5 | COc1cccc(CNC(=O)c2nnn(CC(=O)Nc3ccc(C)c(C)c3)c2N)c1 | 55 | x | i | 0.76
6 | O=C(NCc1ccc(Cl)cc1)C1CCN(S(=O)(=O)c2ccc(F)cc2)CC1 | 97 | -3 | i | 0.92
7 | N#Cc1ccccc1NC(=O)Nc1cccs1 | 100 | -5 | i | 1
8 | CCCCCc1cc(=O)oc2c(C(CCN3CCCC(C)C3)c3ccc4c(c3)OCO4)c(OC)cc(OC)c12 (stereo not drawn) | 103 | x | i | 0.72

cpd | INS promoter inh | INS promoter inh cell count | GALR2 ag
1 | x | x | x
2 | 48 | 110 | -0.7
3 | -148 | 90 | -2.9
4 | -420 | 50 | 5.8
5 | x | x | x
6 | x | x | x
7 | -6 | 100 | -3.9
8 | x | x | x

(next part)
cpd | molecule | RGS16-Gao | PKD1 kinase inh | HSV replic up | HSV replic up primary fold
9 | Cc1ccc(-c2csc3nc(C)n(-n4c(C)ccc4C)c(=O)c23)o1 | 98 | 5 | i | 0.98
10 | O=C(Cc1ccc(F)cc1)c1ccc(O)cc1O | 99 | 3 | i | 1.1
11 | CN(C)C(/C=C/Nc1ccc(O)cc1)=C(C#N)C#N | 103 | 0 | x | x
12 | CCOCc1cnc(C)nc1NCC(=O)c1c(C)n(C)c2ccc(OC)cc12 | 95 | -3 | i | 1.1
13 | CCn1c2ccc(/C(C)=N\O)cc2c2cc(/C(C)=N\O)ccc21 | 105 | -15 | i | 0.71
14 | COC(=O)/C(=C1/Oc2ccc(C)cc2S1)C(F)(F)F | 102 | -8 | i | 0.89
15 | CN1CCN(c2oc(Cc3cccc4ccccc34)nc2C#N)CC1 | 101 | x | i | 1.1
16 | O=c1c2cccnc2[nH]c(=S)n1CCCN1CCN(c2ccc(F)cc2)CC1 | 99 | -2 | i | 0.84

cpd | INS promoter inh | INS promoter inh cell count | GALR2 ag
9 | -29 | 83 | 2.5
10 | -4 | 81 | -1.3
11 | 29 | 168 | x
12 | x | x | -2.0
13 | -12 | 183 | 0.1
14 | x | x | -0.7
15 | x | x | x
16 | -89 | 45 | -1.0

Later entries
cpd | molecule | RGS16-Gao | PKD1 kinase inh | HSV replic up | HSV replic up primary fold
17 | CCN(CC(=O)NC(C)(C)C)C(=O)C(c1ccccc1)c1ccccc1 | 103 | -4 | i | 1
18 | CC(C)C(CCNC(=O)CN1C(=O)c2ccccc2C1=O)c1ccco1 (stereo not drawn) | 105 | -1 | i | 1.2
19 | CCN(CC)Cc1c(C(=O)N2CCc3ccccc3C2)nc2ccc(Cl)cn12 | 103 | 3 | i | 1
20 | CN(C)C(=O)c1nc2ccccc2s1 | 103 | -8 | i | 1
21 | CCO/N=C/c1ccc(OC)c(Oc2nc(OC)cc(OC)n2)c1 | 103 | -6 | i | 0.92
22 | Cc1ncsc1C(=O)N1CCCC(CNS(=O)(=O)c2cccs2)C1 (stereo not drawn) | 109 | -3 | i | 0.95
23 | CC1CCCN(c2ccc3nc4ccccc4c(=O)n3n2)C1 (stereo not drawn) | 100 | -3 | i | 1.1
24 | COc1ccc(OC)c(CNn2c(-c3cccc(C)c3)nc3ccccc3c2=O)c1 | 98 | 0 | i | 0.92

cpd | INS promoter inh | INS promoter inh cell count | GALR2 ag
17 | x | x | x
18 | -79 | 49 | 0.6
19 | x | x | x
20 | 31 | 111 | -4.4
21 | x | x | x
22 | x | x | x
23 | -21 | 116 | x
24 | 23 | 47 | -0.7

Given with values under each structure: part of the list above
Value order – RGS16-Gao	PKD1 kinase inh	HSV replic up	HSV replic up primary fold	INS promoter inh	INS promoter inh cell count	GALR2 ag
21	CCO/N=C/c1ccc(OC)c(Oc2nc(OC)cc(OC)n2)c1
→ 103	-6	i	0.92	x	x	x
22	Cc1ncsc1C(=O)N1CCCC(CNS(=O)(=O)c2cccs2)C1 (stereo not drawn)
→ 109	-3	i	0.95	x	x	x
23	CC1CCCN(c2ccc3nc4ccccc4c(=O)n3n2)C1 (stereo not drawn)
→ 100	-3	i	1.1	-21	116	x
24	COc1ccc(OC)c(CNn2c(-c3cccc(C)c3)nc3ccccc3c2=O)c1
→ 98	0	i	0.92	23	47	-0.7

The list continues.
cpd | molecule | RGS16-Gao | PKD1 kinase inh | HSV replic up | HSV replic up primary fold
25 | O=C(CN(C(=O)Cn1nnc(-c2ccc(F)cc2)n1)C1CCCC1)NC1CCCC1 | 100 | 0 | i | 0.86
26 | N#CCCN(Cc1cccnc1)C(=S)NC1CC2C=CC1C2 (stereo not drawn) | 100 | x | i | 0.89
27 | CCOC(=O)c1cnc(SCC(=O)Nc2ccc3c(c2)OCCO3)nc1N | 100 | -8 | i | 1
28 | CCC(C)(C)NC(=S)Nc1ccc(-c2nc3ccc(C)cc3s2)cc1 | 103 | -1 | i | 0.87
29 | CC(=O)OCCNc1cc(SC(C)C)c2nonc2c1[N+](=O)[O-] | 112 | 2 | i | 0.9
30 | O=C(O)COc1ccc(/C=N/O)cc1Br | 75 | -3 | i | 0.93
31 | O=C(NN1C(=O)C2C(c3ccccc3)C=CC(c3ccccc3)C2C1=O)c1ccncc1 (stereo not drawn) | 100 | 7 | i | 1.1
32 | NC(=O)C[n+]1cccc(CNC(=O)c2ccc(OC(F)F)cc2)c1 | 101 | -5 | i | 1

cpd | INS promoter inh | INS promoter inh cell count | GALR2 ag
25 | x | x | 0.0
26 | x | x | x
27 | x | x | -1.9
28 | 7 | 92 | 3.8
29 | 33 | 122 | x
30 | -8 | 101 | x
31 | x | x | x
32 | 8 | 161 | x

Next results follow.
cpd | molecule | RGS16-Gao | PKD1 kinase inh | HSV replic up | HSV replic up primary fold
33 | COCn1c(-c2ccccc2)nc2ccccc21 | 117 | -15 | i | 0.99
34 | COC(=O)c1cccnc1-n1c(=O)c2cccnc2n(CC(=O)Nc2ccc(Br)cc2)c1=O | 102 | -6 | i | 0.9
35 | S=C1NC2=C(CCC/C2=C\c2ccc(Cl)cc2)C(c2ccc(Cl)cc2)N1 (stereo not drawn) | 94 | x | i | 0.76
36 | COc1ccccc1CC(=O)Nc1ccc2c(c1)CCC2 | 89 | 3 | i | 0.92
37 | COc1ccc(/C(N)=N/OC(=O)Cc2ccc(C)cc2)cc1OC | 64 | -6 | i | 0.98
38 | O=C1CCCN1CCCNS(=O)(=O)c1ccc(F)cc1F | 105 | x | i | 1.2
39 | C=CCN(CC=C)Cc1ccc(C(=O)OC)o1 | 112 | -9 | i | 1.2
40 | Cc1ccn2cc(C(=O)NC3CCN(Cc4ccccc4)CC3)nc2c1 | 104 | -14 | i | 1

cpd | INS promoter inh | INS promoter inh cell count | GALR2 ag
33 | x | x | -1.1
34 | x | x | x
35 | x | x | x
36 | x | x | -0.6
37 | 26 | 106 | -0.9
38 | x | x | x
39 | -46 | 51 | -0.8
40 | 6 | 101 | -0.3

New compounds follow.
cpd | molecule | RGS16-Gao | PKD1 kinase inh | HSV replic up | HSV replic up primary fold
41 | O=S(=O)(c1ccccc1)C1CON(Cc2ccccc2)C1c1ccccc1 (stereo not drawn) | 104 | 4 | i | 0.97
42 | CC(=N[C@@H]1CCCC[C@H]1N=C(C)c1ccccc1O)c1ccccc1O | 96 | 7 | i | 0.87
43 | COC(C[C@@H]1O[C@@H]1[C@H](O)[C@H](C)OCc1ccccc1)OC | 104 | x | i | 0.92
44 | COCCNC(=O)C(c1cccs1)N(C(=O)Cn1nnc2ccccc21)c1ccc(OC)cc1 (stereo not drawn) | 86 | 10 | i | 1
45 | CCOC(=O)c1cc(-c2csc(Nc3c(C)cc(C)cc3C)n2)on1 | 108 | x | i | 0.84
46 | COc1ccc(CCN2C(=S)N(C)C(=O)C2CC(=O)Nc2ccc(F)cc2)cc1 (stereo not drawn) | 102 | x | i | 1
47 | O=C1C=C(NCc2ccco2)CC(c2ccc(Cl)cc2)C1 (stereo not drawn) | 97 | -1 | i | 0.96
48 | COc1ccc(OCCC(=O)N2CCOCC2)cc1 | 105 | -6 | i | 0.76

cpd | INS promoter inh | INS promoter inh cell count | GALR2 ag
41 | x | x | x
42 | 31 | 106 | -1.9
43 | x | x | x
44 | -444 | 49 | -2.6
45 | x | x | x
46 | x | x | x
47 | -8 | 69 | 0.3
48 | x | x | x

(continued)
cpd | molecule | RGS16-Gao | PKD1 kinase inh | HSV replic up | HSV replic up primary fold
49 | Cc1cc(Nc2ncc(Cl)cc2Cl)n(-c2ccccn2)n1 | 118 | -6 | i | 1.1
50 | COC(=O)CSc1[nH]c2ccc(Br)cc2c1[N+](=O)[O-] | 103 | 2 | i | 0.93
51 | Cc1cc(OC(=O)N2CCCCC2)cc(C)c1Cl | 102 | 0 | i | 0.76
52 | Cc1cc(Cl)ccc1NC(=S)NCc1ccco1 | 101 | 0 | i | 1.1
53 | CC(=O)COc1nc2c(c(-c3ccco3)c1C#N)CCc1ccccc1-2 | 99 | x | i | 0.88
54 | O=C(NC1CCCCCC1)C(=S)NC1CCCCC1 | 99 | 10 | i | 0.99
55 | O=C(O)c1cc(-c2cccs2)nn1-c1ccccc1 | 98 | -2 | i | 0.91
56 | Cc1ccc(-c2ccccc2NC(=O)C2C3C=CC(C3)C2C(=O)O)o1 (stereo not drawn) | 98 | -2 | i | 1

cpd | INS promoter inh | INS promoter inh cell count | GALR2 ag
49 | -21 | 129 | -1.3
50 | 7 | 98 | x
51 | -72 | 92 | -1.0
52 | x | x | 0.3
53 | x | x | x
54 | x | x | x
55 | x | x | x
56 | x | x | -2.0

One compound at a time (already shown). Screens in order: RGS16-Gao, PKD1 kinase inh, HSV replic up, HSV replic up primary fold, INS promoter inh, INS promoter inh cell count, GALR2 ag
S=C1NC2=C(CCC/C2=C\c2ccc(Cl)cc2)C(c2ccc(Cl)cc2)N1 (stereo not drawn) is listed as 94, x, i, 0.76, x, x, x
CC(=O)OCCNc1cc(SC(C)C)c2nonc2c1[N+](=O)[O-] is listed as 112, 2, i, 0.9, 33, 122, x
COC(=O)c1cccnc1-n1c(=O)c2cccnc2n(CC(=O)Nc2ccc(Br)cc2)c1=O is listed as 102, -6, i, 0.9, x, x, x

(more compounds)
cpd | molecule | RGS16-Gao | PKD1 kinase inh | HSV replic up | HSV replic up primary fold
57 | O=P(O)(O)C(O)C(F)(F)C(F)(F)C(F)(F)C(F)F (stereo not drawn) | 100 | -9 | i | 1
58 | Cc1ccccc1NC(=S)NCCc1ccccc1 | 107 | -7 | x | x
59 | O=C(c1ccccn1)N1CCN(S(=O)(=O)c2ccc3ccccc3c2)CC1 | 107 | -6 | i | 0.98
60 | COc1ccc(S(=O)(=O)NC(C)C(=O)Nc2cccc(C(C)=O)c2)cc1 (stereo not drawn) | 69 | 2 | i | 0.88
61 | O=S(=O)(NCc1ccccc1F)c1cccc(S(=O)(=O)N2CCOCC2)c1 | 101 | -2 | i | 1
62 | c1ccc([C@H]2CC3C[C@@H](c4ccccc4)N2O3)cc1 | 101 | -4 | i | 0.85
63 | COc1ccc(NC(=O)CN(C)CC(=O)Nc2cccc(C(F)(F)F)c2)cc1 | 105 | 0 | i | 0.96
64 | COC(=O)c1ccnc(/C=N/O)c1 | 92 | -6 | i | 1.1

cpd | INS promoter inh | INS promoter inh cell count | GALR2 ag
57 | -16 | 154 | -0.8
58 | 0 | 85 | -0.8
59 | x | x | x
60 | -42 | 69 | -2.5
61 | -64 | 63 | x
62 | 7 | 126 | -2.9
63 | x | x | x
64 | -34 | 74 | -0.6

Next structures
cpd | molecule | RGS16-Gao | PKD1 kinase inh | HSV replic up | HSV replic up primary fold
65 | CCOc1cc(C)nc(N2CCC(C(=O)Nc3ccccc3OCC)CC2)n1 | 103 | -2 | i | 0.88
66 | COc1ccc(C(=O)C(CN2CCCC2)c2ccccc2)cc1 (stereo not drawn) | 57 | -10 | i | 0.8
67 | CCOc1ccc(OCC)c(NC(=O)CCSCCc2ccccn2)c1 | 108 | 3 | i | 1
68 | CN(C)c1nc(N)c([N+](=O)[O-])c(NCCO)n1 | 106 | 4 | i | 1.1
69 | N/C(=N\OC(=O)CCC1CCCC1)c1cccc([N+](=O)[O-])c1 | 91 | 4 | i | 0.99
70 | CC(C)N(C(=O)COC(=O)c1ccccc1C(=O)N1CCN(c2ccc(F)cc2)CC1)C(C)C | 101 | 3 | i | 0.92
71 | COc1ccccc1OCCSc1nc(C)c(Cc2ccccc2)c(=O)[nH]1 | 104 | x | i | 0.89

cpd | INS promoter inh | INS promoter inh cell count | GALR2 ag
65 | x | x | 0.2
66 | x | x | -0.9
67 | x | x | x
68 | x | x | -0.4
69 | x | x | -1.3
70 | x | x | -1.6
71 | x | x | x
